# ClpP mod = qHTS Assay for Activators of ClpP. purified B. subtilis ClpP, FRET peptide cleavage, 20 min. Potency, µM (top dose mostly 57.5 µM), for inactives: at the highest dose activity change, negative = active. actives 1.9% (n = 340,000); active = well fitted falling curve with a large enough effect; inconclusive = small, poorly fitted or top-dose-only effect; inactive = no such curve, though single readings can be large or run the other way; also: potency is read from the fitted curve at half-maximal effect; the source files actives as falling curves though it sought activators and does not explain the sign; nearly all actives have a fitted effect of over 65% in size; many hits overshoot -100%
# Target sequence (P80244 whole entry, looked up): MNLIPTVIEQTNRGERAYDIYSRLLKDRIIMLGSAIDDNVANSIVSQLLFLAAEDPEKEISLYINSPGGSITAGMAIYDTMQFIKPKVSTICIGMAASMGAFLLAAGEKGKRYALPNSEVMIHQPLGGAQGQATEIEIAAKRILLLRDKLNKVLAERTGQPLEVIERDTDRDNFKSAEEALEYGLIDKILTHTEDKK
#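 Purified B. subtilis ClpP, 10 microg/mL final in Tris/HCl pH8 with KCl, BSA, glycerol and Tween-20, cleaved an Abz/nitrotyrosine-quenched decapeptide. Fluorescence (ex 320, em 430) was read at 0 and 20 min at room temperature. Delta was normalized to 5.8 microM ADEP and DMSO/no-enzyme controls.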
# PINK1 modulator = A Quantitative High throughput Screen to Identify Chemical Modulators of PINK1 Expression; PINK1 immunofluorescence, high-content cytometry, 24 h; Potency, µM (highest dose often 76.6 µM), for inactives: at the highest dose activation (PINK1 increase), hits mostly activators; actives 0.2% (n = 410,000); active = well fitted activation curve with a large enough effect; inconclusive = small, poorly fitted or top-dose-only effect; inactive = flat fitted curve, though single readings scatter; cell line not stated here;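 also: potency is read from the fitted curve at half-maximal effect; % of control where 0% means no effect; nearly all actives have a fitted effect of over 65% in size; a mitochondrial uncoupler was the plate control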
#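 Stable cell line, 250 cells/well, 12 h attachment; compounds pinned at 5 concentrations, 24 h; CCCP control. Fixed with nuclear dye, primary antibodies 12 h at 10 degrees C, secondary plus cell stain; laser-scanning cytometer read.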
# TRPV1 PAM = HTS Assay for Compounds that Act as Potentiators of the Vanilloid Receptor 1; Transient receptor potential cation channel subfamily V member 1 (Homo sapiens), Q8NER1; TRPV1-expressing cells, Fluo-8 calcium influx, capsaicin EC20 potentiation; host cell line not named in the record; control for the full effect not named in the record; potentiation, % at 8.33 µM; actives 0.02% (n = 320,000); AID 540277, 2011; active means potentiation above 80%; inconclusive means 30% to 80%; inactive means below 30%; also: 0% is about no effect
# Target sequence (Q8NER1 whole entry, looked up): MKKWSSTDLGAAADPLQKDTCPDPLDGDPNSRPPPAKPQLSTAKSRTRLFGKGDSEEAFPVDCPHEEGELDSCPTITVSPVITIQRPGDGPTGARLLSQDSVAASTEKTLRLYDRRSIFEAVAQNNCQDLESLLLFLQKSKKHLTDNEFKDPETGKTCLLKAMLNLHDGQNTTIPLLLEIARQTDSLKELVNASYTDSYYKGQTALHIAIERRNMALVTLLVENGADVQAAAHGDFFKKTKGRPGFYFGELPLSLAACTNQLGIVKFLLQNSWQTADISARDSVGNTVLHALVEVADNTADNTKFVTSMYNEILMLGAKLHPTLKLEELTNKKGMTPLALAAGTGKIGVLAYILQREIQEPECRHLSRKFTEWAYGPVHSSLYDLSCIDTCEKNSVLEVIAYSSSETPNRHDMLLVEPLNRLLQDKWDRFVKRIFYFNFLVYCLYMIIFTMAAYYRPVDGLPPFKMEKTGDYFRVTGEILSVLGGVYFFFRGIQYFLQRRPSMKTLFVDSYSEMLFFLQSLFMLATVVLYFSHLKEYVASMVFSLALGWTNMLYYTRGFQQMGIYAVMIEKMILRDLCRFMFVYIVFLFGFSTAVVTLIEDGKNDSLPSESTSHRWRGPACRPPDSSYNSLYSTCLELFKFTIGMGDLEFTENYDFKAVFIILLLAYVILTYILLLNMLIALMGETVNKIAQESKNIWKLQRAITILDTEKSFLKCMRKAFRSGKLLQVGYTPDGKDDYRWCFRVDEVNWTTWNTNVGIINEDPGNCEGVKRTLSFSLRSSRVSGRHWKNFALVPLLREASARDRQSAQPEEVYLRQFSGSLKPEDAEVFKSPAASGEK
#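 TRPV1-expressing cells were cultured overnight at 35.5C and loaded with Fluo-8 calcium dye for 40 to 90 min at room temperature. After a 10 s baseline, compound was added and calcium influx was read kinetically for 3 min (ex 480/em 520 nm).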
# Menin-MLL FL inh = qHTS Assay for Inhibitors Targeting the Menin-MLL Interaction in MLL Related Leukemias: Competition With Fluorescein Labeled MLL-derived Peptide. Fluorescence polarization, fluorescein-MLL peptide displacement from menin. FP activity change, % at 61.4 µM. 290,000 tested, under 10 active; inconclusive = falling polarisation curve, or a change in total fluorescence; inactive = total fluorescence flat and polarisation flat or rising; no compound was filed as active; the % refers to the polarisation; negative = inhibition;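 also: % of control where 0% means no effect; inhibitors lower the polarisation; unlabelled MLL peptide was the positive control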
# Sfp PPTase inh = qHTS Assay for Inhibitors of Bacillus subtilis Sfp phosphopantetheinyl transferase (PPTase) | 4'-phosphopantetheinyl transferase ffp (Bacillus subtilis), Q9F4F7 | actives 3.5% (n = 310,000) | AID 1490, 2009 | Potency, µM, for inactives: max response, negative = inhibition, hits mostly inhibitors | Biochemical Sfp PPTase activity, qHTS; active = well fitted inhibition curve with a large enough effect; inconclusive = small, poorly fitted or top-dose-only effect, or another doubt; inactive = no such curve, though single readings can be large or run the other way;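 also: the enzyme is Sfp with the accession as filed and its product quenches rhodamine fluorescence; potency is read from the fitted curve at half-maximal effect; 0% = enzyme reaction without inhibitor and -100% = no enzyme wells; top concentration of the series not given in the record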
#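 Sfp 15 nM + cpd, 15 min RT; start w/ rhodamine-CoA 5 uM, BHQ-2-YbbR 12.5 uM (final); 50 mM Hepes pH 7.6, 10 mM MgCl2, 0.01% NP-40, 0.01% BSA; read 525/598 nm at 0 and 30 min.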
# TRPML1 ag = qHTS for Agonists of the Human Mucolipin Transient Receptor Potential 1 (TRPML1). TRPML1-expressing cells, Ca2+ dye fluorescence, FDSS; host cell line not named in the record; reference of the full effect not given here. actives 0.12% (n = 410,000). AID 624414, 2012. Mucolipin-1 (Homo sapiens), Q9GZU1. activation, % (concentration not given with the values); in the data active = activation above about 50%; inconclusive = about 30% to 50%; inactive = below about 30%; also: 0% is about no effect; the text of the record puts the active cut at 80%
#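 Kinetic FDSS Ca2+ read in Tet-induced TRPML1-DL cells (ABD Ca8 dye plus quencher, 45-90 min RT loading): baseline, then compound, then 110 s agonist window; EC80 agonist 54-4 at 4uM final added afterwards for a 110 s antagonist window.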
# TRPML1 inh = qHTS for Inhibitors of the Human Mucolipin Transient Receptor Potential 1 (TRPML1); Mucolipin-1 (Homo sapiens), Q9GZU1; TRPML1-inducible cells, Ca2+ dye fluorescence, FDSS; active compounds read low; inhibition of EC80 agonist-evoked calcium signal; activity change, negative = inhibition, % (test concentration not listed); actives 0.02% (n = 390,000); in the data active means activity change below about -50%; inconclusive means about -30% to -50%; inactive means above about -30%;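 also: stimulus is agonist 54-4 at its EC80 concentration; % is scaled to controls: 0 for no effect and ±100 for the full control effect; compound concentration not given in the record; the text of the record puts the active cut at -80%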
#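 Calcium fluorescence in TRPML1-DL cells induced overnight with Tet: a 110 s read after compound pin addition, then a 110 s antagonist read after challenge with 54-4 at 4 uM final (EC80).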
# Numbers without * were called inactive; ? = inconclusive; / = no result given; & = joins results of further samples; [ ] = another dose, or the depositor's remark. Random draw from the library. Share with any hit: about 4.4%.
SMILES,ClpP mod,PINK1 modulator,TRPV1 PAM,Menin-MLL FL inh,Sfp PPTase inh,TRPML1 ag,TRPML1 inh
CCc1ccc(NC(=O)CN(N=Nc2nonc2C)c2nonc2C)cc1,-1.9%,-0.1%,3.0,?,-5.7%,-0.5,16.9
CC(C)N1CCc2c(sc(NC(=O)CCc3ccccc3)c2C(N)=O)C1,-15.4%,3.0%,2.0,-9.3,-15.4%,0.2,14.9
Cc1ccc(-c2c(C(=O)N/N=C/c3ccncc3)nnn2-c2nonc2N)cc1,2.4%,0.7%,-14.0,-4.0,17.9%,-0.5,-4.7
COc1cc(C(=O)Nc2ccc(Nc3ccccc3)cc2)cc(OC)c1OC,-0.3%,5.1%,24.1,0.6,0.9%,0.8,4.2
CCN(CC(=O)NCc1cccs1)C(=O)c1ccc(OC)c(S(=O)(=O)N2CCOCC2)c1,0.9%,2.9%,-4.5,/,/,-0.3,-6.2
Cc1ccc(NC(=O)Nc2ccc3nc(N4CCN(C)CC4)cc(C)c3c2)cc1C,4.8%,11.3%,/,/,/,0.9,8.6
CC(=O)C[C@H](O)CC(=O)[C@H]1OC(=O)CCCCCCc2ccccc21,0.7%,0.5%,/,/,/,-0.4,-4.7
COc1ccc(CN2COc3ccc4c(C)cc(=O)oc4c3C2)cc1,3.9%,-1.0%,/,/,/,0.7,2.6
CCCC1C(=O)Nc2ccccc2N1C(=O)c1cccc(C)c1 (configuration not stated),-2.7%,-0.8%,3.2,5.0,7.0%,1.2,-14.8
Cc1cccc(NC(=O)C23CCC(C)(C2Br)C3(C)C)c1 (configuration not stated),-0.4%,3.0%,-9.5,0.2,-0.7%,1.1,12.6
NCCSC1CC(=O)N(c2ccc(Cl)c(Cl)c2)C1=O (configuration not stated),/,2.8%,-24.6,5.8,-14.0%,-0.1,-5.0
COC(=O)c1scc(C)c1NC(=O)c1ccccc1F,0.6%,2.7%,11.7,0.2,10.5%,-0.6,11.7
C/C=C(/C)C(=O)Nc1cccc(C2=NOC3(C2)C[C@@H](C(N)=O)N(C(=O)CC)C3)c1 (some centres not stated),-5.7%,0.4%,-35.0,-1.0,14.7%,0.3,-2.7
Cc1nnc(NC(=O)CSc2nnc(CNC(=O)c3ccccc3)o2)s1,-2.1%,-2.6%,6.2,-3.6,2.9%,0.4,0.8
COc1ccc(C2=NS(=O)(=O)N(C)C(C(=O)N3CCC(C)CC3)=C2)cc1,-4.4%,1.1%,11.4,-0.2,16.5%,-0.7,3.0
COc1ccc2nc(C)cc(SCC(=O)N/N=C/c3ccccc3)c2c1,-2.7%,2.2%,-8.7,5.4,-9.6%,0.9,5.8
O=c1cc(N2CCCCC2)c(-c2ccccc2)nn1Cc1ccc(F)cc1,1.5%,3.2%,-8.1,5.2,?,-0.3,-3.0
COc1cccc2cc(C(=O)CS(=O)(=O)c3ccc(C)cc3)c(=O)oc12,-3.0%,1.6%,-21.3,/,-12.1%,5.3,-9.7
CC(NS(=O)(=O)c1cccc(Cl)c1F)[C@H](O)c1ccccc1 (some centres not stated),0.9%,0.4%,/,/,/,-0.5,18.0
O=C(NNC(=O)c1cccc(-n2cnnn2)c1)c1ccccc1,1.2%,2.8%,5.2,1.0,17.3%,-0.2,5.3
CCOCCCNC(=O)c1ccc(-n2c(-c3ccccc3)cc3c2CCC(C)C3)cc1 (configuration not stated),?,2.2%,/,/,/,2.0,1.1
O=S(=O)(c1ccccc1C(F)(F)F)N1CCOCC1,-1.1%,-1.1%,6.0,-0.1,0.2%,-0.2,-17.1
C=CCc1ccc(OCC(O)CN2CCN(Cc3ccccc3)CC2)c(OC)c1 (configuration not stated),0.6%,0.2%,-1.0,-2.1,-4.8%,0.9,0.3
CCN(C(=O)Cc1nc(N)n[nH]1)C1(C(=O)Nc2ccccc2)CCCCC1,/,2.8%,14.5,-0.6,16.2%,0.2,6.8
C=CC[C@H](CC(=O)NCCO)C(=O)N[C@H](COC(=O)[C@@H](CC=C)Cc1ccc(F)cc1)c1ccccc1,-0.6%,3.4%,/,/,/,-0.8,-8.3
O=C(CC1(CC(=O)N2CCOCC2)CCCC1)Nc1ccccc1,-0.8%,0.1%,4.2,/,/,2.1,-8.1
C/C(=N\NC(=O)c1cccc(N/N=C(\C)c2ccco2)c1)c1ccco1,-0.5%,-0.1%,-2.6,0.2,5.4%,0.6,36.6
CCC1CCCCN1C(=O)C1CC(c2cc(Cl)c(OC)cc2OC)=NO1 (configuration not stated),-6.8%,/,-8.7,0.4,9.7%,-0.3,-13.0
Cc1ccc(S(=O)(=O)c2cn(C)c3cc(N4CCCCCC4)c(F)cc3c2=O)cc1,-6.3%,0.2%,/,/,/,-1.1,-2.6
Cc1cc(C)c2c(N=NN3CCOCC3)[nH]nc2n1,-5.8%,0.1%,1.8,3.8,2.0%,-0.1,-2.5
C=CCc1cccc2cc(C(=O)NC)c(=O)oc12,22.4µM*,-0.3%,-13.6,-6.2,7.8%,-0.6,11.6
Cc1ccc(NC(=O)COC(=O)CN2C(=O)c3ccccc3C2=O)cc1,-1.1%,-0.2%,13.7,/,/,-0.5,3.9
O=C(Cc1cc(=O)[nH][nH]1)N/N=C/c1cccc2ccccc12,0.5%,-0.6%,16.2,0.0,-3.8%,3.4,-24.7
Cc1ccc(S(=O)(=O)N/N=C/c2c(F)cccc2Cl)cc1,8.4%,2.1%,-10.0,5.6,12.7%,0.1,36.0
CC1Cc2ccccc2N1S(=O)(=O)c1cnc(Cl)c(Cl)c1 (configuration not stated),-0.2%,-0.5%,-0.6,0.0,-27.8%,-0.2,20.0
O=C(O)CSCC(=O)Nc1ccc(C(=O)O)cc1,0.0%,1.0%,3.1,4.8,-3.6%,-0.3,9.3
CN(C)CCN(C(=O)/C=C/c1cccs1)c1nc2ccc(Br)cc2s1,7.1%,6.9%,1.7,0.4,10.9%,0.7,10.7
Cc1ccc2cc(/C=C(\C#N)C(N)=O)c(N3CCCCC3)nc2c1,0.3%,3.2%,-15.6,18.8,-3.3%,1.6,-9.9
FC(F)(F)c1ccccc1NC(=S)NC1CCN(Cc2ccccc2)CC1,0.0%,2.8%,6.9,0.6,13.1%,0.3,-6.2
CCc1ccc(N2CC(C(=O)N/N=C/c3cc([N+](=O)[O-])ccc3O)CC2=O)cc1 (configuration not stated),/,1.9%,3.2,1.8,22.1%,-0.6,-2.2
CN(Cc1ccccc1)CC(O)COc1ccc(CNCCc2ccncc2)cc1 (configuration not stated),0.2%,1.3%,8.4,-9.6,4.6%,/,/
COc1ccc(C(NC(=O)CNC(C)=O)C(=O)Nc2ccc(C(C)C)cc2)cc1 (configuration not stated),1.9%,-0.3%,9.1,-4.4,6.1%,-0.3,17.7
COc1ccc(N(C)S(=O)(=O)c2cccc(C(=O)OCC(=O)Nc3cc(C)ccc3OC)c2)cc1,-2.0%,2.0%,/,/,/,-0.8,6.9
Cc1ccc(-c2csc3ncnc(Oc4ccc5c(C)cc(=O)oc5c4)c23)cc1,28.2µM*,1.8%,-2.2,/,-21.5%,0.7,-0.4
CC(/C=C/c1ccco1)=N\NC(=O)c1cccnc1,-3.3%,5.3%[38.3 µM],1.5,3.5,56.2µM*,1.1,36.3
O=C(Nc1ccc(Cl)cc1)N(Cc1nc2ccccc2c(=O)[nH]1)Cc1cccs1,-3.0%,?,-3.4,1.0,3.6%,-0.2,21.8
CC(=O)c1cccc(NC(=O)NCCc2ccc(Cl)cc2)c1,-4.4%,0.1%,1.2,-0.2,12.5%,1.4,-12.3
CCOc1ccc(NC(=O)C(C)N2C(=O)c3ccccc3S2(=O)=O)cc1 (configuration not stated),-0.3%,-0.8%,20.8,/,/,2.5,27.8
COc1ccccc1NC(=O)C1=C(C)Nc2nc3ccccc3n2C1c1ccccc1Cl (configuration not stated),5.6%,-0.4%,/,/,/,-0.9,-1.1
COc1ccccc1N1CCN(C(=O)CCn2cnc3onc(-c4ccc(F)cc4)c3c2=O)CC1,-0.9%,0.5%,/,/,/,1.0,-9.4
CCOC(=O)c1sc2nc(C)cc(-c3ccccc3)c2c1N,-10.6%,6.0%,11.7,6.3,-17.1%,0.3,0.9
O=C(N/N=C/c1cccnc1)c1cccc(S(=O)(=O)N2CCCC2)c1,/,1.6%,2.0,0.0,22.2%,0.1,4.4
Cc1cccc(C)c1OCCn1c(C2CC(=O)N(Cc3ccc(F)cc3)C2)nc2ccccc21 (configuration not stated),-1.6%,?,/,/,/,-1.1,3.9
Cc1nc(N)sc1-c1nnc(SCC(=O)Nc2ccccc2C(F)(F)F)n1C,3.3%,2.9%,15.5,3.0,11.6%,0.4,-20.6
COc1cccc(-n2nnnc2SCC(=O)Nc2cccc(C)n2)c1,-2.4%,?,7.8,-4.1,-0.7%,-0.1,-9.6
Cc1coc2c(C)c3oc(=O)c(CCC(=O)NCCN4CCOCC4)c(C)c3cc12,?,1.3%,-3.6,-8.2,7.7%,/,/
C#CCOCCOCCOCCNc1nc(N2CCN(C(=O)[C@H](C(C)C)n3cc(CCO)nn3)CC2)nc(N2CCN(C(=O)[C@H](CCCCN)n3cc(CCCC)nn3)CC2)n1,1.7%,1.3%,6.9,-5.4,-2.5%,-0.5,-7.9
Cc1nc(N2CCN(c3ccccc3)CC2)[nH]c(=O)c1CCC(C)C,/,-1.9%,4.3,0.3,-3.7%,1.6,-13.0
CCCNC(=O)CCn1nc(-c2ccccc2)c2ccccc2c1=O,-2.6%,-2.6%&1.4%,-17.4,4.0,19.5%,0.9&-1.2,-14.9&11.9
Cc1ccc(N2C(=O)C3NN=C(C(=O)OCc4ccccc4)C3C2=O)cc1 (configuration not stated),1.8%,-0.1%,6.8,1.4,4.3%,-0.5,9.3
COc1ccc(-c2noc(-c3ccc(NC4CCCCC4)c([N+](=O)[O-])c3)n2)cc1OC,2.6%,2.8%,/,/,/,-0.9,-3.6
